ClpP mod: qHTS Assay for Activators of ClpP | ATP-dependent Clp protease proteolytic subunit (Bacillus subtilis (strain 168)), P80244 | purified B. subtilis ClpP, FRET peptide cleavage, 20 min | 1.9% of 340,000 active | Potency, µM (series often up to 57.5 µM), for inactives: at the top dose activity change, negative = active; active = well fitted falling curve with a large enough effect; inconclusive = small, poorly fitted or top-dose-only effect; inactive = no such curve, though single readings can be large or run the other way; further: potency means the concentration at half of the fitted maximal effect; the source files actives as falling curves though it sought activators and does not explain the sign; nearly all actives have a fitted effect of over 65% in size; many hits overshoot -100%
Target sequence (P80244 whole entry, looked up): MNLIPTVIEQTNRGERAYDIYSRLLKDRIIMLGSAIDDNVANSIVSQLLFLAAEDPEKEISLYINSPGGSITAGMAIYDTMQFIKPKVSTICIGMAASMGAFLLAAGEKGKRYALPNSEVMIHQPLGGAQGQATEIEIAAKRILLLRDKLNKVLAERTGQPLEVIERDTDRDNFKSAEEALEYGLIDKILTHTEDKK
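FRET quenching reversal measured ClpP activation: 10 microg/mL B. subtilis ClpP at pH 8 with the FRET-FV decapeptide, read at 430 nm after 320 nm excitation. The 20-min minus 0-min signal was scaled between DMSO/no-enzyme wells and ADEP (5.8 microM final).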
TRPML1 ag: human mucolipin-1 channel agonism | TRPML1-expressing cells, Ca2+ dye fluorescence, FDSS; host cell line not named in the record; reference of the full effect not given here | Q9GZU1 | 0.12% of 410,000 active | activation, % (concentration not given with the values) | AID 624414; in the data active = activation above about 50%; inconclusive = about 30% to 50%; inactive = below about 30%; further: 0% is about no effect; the text of the record puts the active cut at 80%
Target sequence (Q9GZU1 whole entry, looked up): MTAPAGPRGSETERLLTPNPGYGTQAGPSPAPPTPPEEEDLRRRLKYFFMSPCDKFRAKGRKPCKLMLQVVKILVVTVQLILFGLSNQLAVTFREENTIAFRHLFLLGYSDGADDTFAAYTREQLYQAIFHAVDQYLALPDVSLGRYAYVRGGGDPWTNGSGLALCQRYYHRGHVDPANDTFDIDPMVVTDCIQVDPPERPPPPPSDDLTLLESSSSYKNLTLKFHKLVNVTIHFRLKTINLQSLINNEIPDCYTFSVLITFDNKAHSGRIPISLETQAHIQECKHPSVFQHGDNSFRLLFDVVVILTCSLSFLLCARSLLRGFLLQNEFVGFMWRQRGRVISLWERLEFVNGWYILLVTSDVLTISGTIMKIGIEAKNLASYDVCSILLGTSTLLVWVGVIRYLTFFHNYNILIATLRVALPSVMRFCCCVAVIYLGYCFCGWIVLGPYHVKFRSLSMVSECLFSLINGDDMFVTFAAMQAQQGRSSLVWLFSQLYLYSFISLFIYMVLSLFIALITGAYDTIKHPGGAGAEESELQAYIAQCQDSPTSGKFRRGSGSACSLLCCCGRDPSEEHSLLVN
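TRPML1-DL cells, Tet-induced overnight (~16 h, 37 degrees C), loaded 45-90 min at room temperature with Ca8 no-wash calcium dye plus quencher. FDSS fluorescence: 10 s baseline, compound pin-transfer, 110 s agonist read, then EC80 54-4 (4uM final) and 110 s antagonist read.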
gsp ag: activates gsp, the McCune-Albright syndrome mutation; AID 624287; Potency, µM (titrated, usually from 76.9 µM), inactives show at the highest dose activation (cAMP increase), most hits filed as activators; gsp mutant cells, cAMP HTRF, 30 min; control for the full effect not named in the record; 0.13% of 340,000 active; active = well fitted activation curve with a large enough effect; inconclusive = small, poorly fitted or top-dose-only effect, or another doubt; inactive = no such curve, though single readings can be large or run the other way; cell line not stated here;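 further: phosphodiesterase inhibitor Ro 20-1724 added with compounds to block cAMP breakdown; potency means the concentration at half of the fitted maximal effect; nearly all actives have a fitted effect of over 60% in size; about a fifth of the inactives were tested at one dose only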
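Cells in DMEM/10% FBS with G418 were pretreated with compounds in DMSO plus […] (300 uM stock) for 30 min at 37C. cAMP was measured by HTRF (cAMP-d2 plus anti-cAMP antibody-K) after 30 min at room temperature.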
gsp antagonist: antagonists of gsp mutant (McCune-Albright syndrome); AID 624288; gsp-mutant cells, cAMP HTRF, 30 min; control for the full effect not named in the record; Potency, µM (highest dose often 76.9 µM), inactives show at the top dose activity change, negative = inhibition, most hits filed as inhibitors; 0.4% of 340,000 active; active = falling curve of any shape with a large fitted effect; inconclusive = falling curve, mostly with a smaller effect; inactive = flat or rising curve; cell line not stated here;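 further: intracellular cAMP measured with PDE inhibitor Ro 20-1724 present during compound exposure; potency means the concentration at half of the fitted maximal effect; on the % scale 0 is the no-effect control and ±100 the full control effect; nearly all actives have a fitted effect of over 65% in size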
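Measurement of cellular cAMP by homogeneous time-resolved fluorescence following a 30 min compound exposure at 37C. The PDE inhibitor […] was present throughout; the assay buffer was DPBS with 0.05% BSA and 0.005% Tween 20.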
TRPML1 inh: human mucolipin-1 channel inhibition | Q9GZU1 | TRPML1-inducible cells, Ca2+ dye fluorescence, FDSS; stronger effect = lower value; inhibition of EC80 agonist-evoked calcium signal | activity change, negative = inhibition, % (concentration not given with the values) | 0.02% of 390,000 active; in the data active means activity change below about -50%; inconclusive means about -30% to -50%; inactive means above about -30%;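 further: stimulus is agonist 54-4 at its EC80 concentration; on the % scale 0 is the no-effect control and ±100 the full control effect; compound concentration not given in the record; the text of the record puts the active cut at -80%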
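TRPML1-DL cells, Tet-induced overnight (~16 h, 37 °C) at 1,500 cells/well, were loaded with Ca8 no-wash dye plus quencher for 45-90 min at room temperature. Compounds were pinned during FDSS kinetic reading; agonist 54-4 at EC80 (4 uM final) then added.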
Menin MLL FP FL: inhibitors of human menin-MLL interaction, wild-type MLL peptide. 290,000 tested, under 10 active. Fluorescence polarization, fluorescein-MLL peptide displacement from menin. FP activity change, % at 61.4 µM; inconclusive = falling polarisation curve, or a change in total fluorescence; inactive = total fluorescence flat and polarisation flat or rising; no compound was filed as active; the % refers to the polarisation; negative = inhibition;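 further: % of control where 0% means no effect; inhibitors lower the polarisation; unlabelled MLL peptide was the positive control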
Active calls of the source: *; ? = inconclusive; / = no result given; & = joins results of further samples; [ ] = dose if it differs, or a comment.

Every second line gives: ClpP mod	TRPML1 inh	Menin MLL FP FL	gsp antagonist	TRPML1 ag	gsp ag
- CC(=O)c1cccc(NCC(=O)Nc2cccc(S(=O)(=O)N3CCCCC3)c2)c1
    0.6%	-8	/	-9%	-0.2	6%
- O=[N+]([O-])c1cc(C(F)(F)F)ccc1NCCOc1ccccc1
    -5.6%	66	2.3	-2%	3.5	-9%
- CC1=CCC2C(=O)N(c3ccc(OC(=O)c4ccco4)cc3)C(=O)C2C1 (stereo unspecified)
    1.0%	-20	-1.1	7%	0.4	24%
- O=C(NCc1ccncc1)c1ccc2nc(Cc3ccccc3F)oc2c1
    -0.5%	9	/	-22%	0.3	?
- Cc1ccc(CNC(=O)CN(C)S(=O)(=O)c2ccc(Br)s2)cc1
    1.4%	-2	/	/	5.6	/
- COc1ccc(C2c3c(noc3C)CC(C)(O)C2C(C)=O)cc1 (stereo unspecified)
    -3.2%	0	0.3	-1%	1.1	-28%
- CCN=C1SC(CC(=O)Nc2sc(C)c(C)c2C(=O)OC)C(=O)N1CC (stereo unspecified)
    -8.4%	-2	3.0	2%	-0.4	8%
- COc1cc(C(=O)NCC(c2cccnc2)N2CCN(c3ccc(F)cc3)CC2)cc(OC)c1OC (stereo unspecified)
    0.0%	-28&-17	-2.3	-7%	1.4&0.1	-9%[15.4 µM]
- Cc1ccc(S(=O)(=O)N(C)/N=C/C=C/c2ccccc2)cc1
    -15%	-10	2.4	6%	1.7	-21%
- O=C(NC1CCCCC1)c1cc(-c2ccccn2)nc2ccccc12
    /	14	0.4	-2%	1.2	4%[15.4 µM]
- COc1cc(/C=N/Nc2cc(C)nc(NS(=O)(=O)c3ccc(C)cc3)n2)ccc1O
    /	9	1.6	?	-0.8	-3%
- Cc1nn(C)c(C)c1S(=O)(=O)N1CCC(C(=O)NC2CCCCCC2)CC1
    -2.4%	7	-0.7	6%	-0.1	3%
- COc1ccccc1C(=O)N1CCC(c2c[nH]c3ccccc23)(c2c[nH]c3ccccc23)CC1
    -1.8%	-18	/	/	-0.4	/
- O=C(NC(Cc1c[nH]c2ccccc12)c1nnc2n1CCCCC2)c1ccc(Cl)cc1 (stereo unspecified)
    1.0%	0	-0.7	-1%	-0.4	1%
- CCOc1ccc(/C(O)=C2/C(=O)C(=O)N(CCN(C)C)C2c2ccccc2)cc1Cl (stereo unspecified)
    -0.5%	20	0.3	14%	-0.1	18%
- Cc1ccc(S(=O)(=O)Cn2nnnc2C(C(C)C)N2CCc3ccccc3C2)cc1 (stereo unspecified)
    -21%	1	3.0	-29%	-0.1	13%
- CCOc1ccc(N(CC(=O)NCc2ccco2)C(=O)CCC(=O)Nc2ccccn2)cc1
    /	46	8.0	3%	-0.3	-5%
- CCOC(=O)C1=C(CC)Nc2ccccc2N=C1NC(=O)Cn1cnc2ccccc2c1=O
    -0.2%	-7	3.7	4%	-0.1	3%
- O=[N+]([O-])c1ccc(S(=O)(=O)Nc2ccc3c(c2)OCCO3)cc1
    -1.6%	/	4.4	-7%	/	?
- Cc1ccc(C)n1-n1c(C)nc2sc3c(c2c1=O)CCCCC3
    -2.2%	10	-1.2	-12%	2.4	2%
- CC(=O)OCCn1c(=O)c2cc3c(=O)n(CCOC(C)=O)c(=O)c3cc2c1=O
    -0.6%	8	-0.3	12%	-0.5	-7%
- CSc1ccc(S(=O)(=O)N2CCC(C(=O)N3CCc4ccccc4C3)CC2)cc1
    /	15	-2.4	-24%	6.0	-19%
- Cc1nc2c(nc1C)C(=O)c1ccccc1C2=O
    0.2%	16	/	10%	0.4	?
- Cc1nn(Cc2ccccc2)c(N)c1-c1ccccc1
    4.1%	33	-1.2	12%	-0.9	27%
- CCOC(=O)c1c(NC(=O)CCc2ccc(CC)o2)sc(C)c1C
    ?	2	0.9	-12%	0.8	-29%
- N#Cc1ccsc1NC(=O)COC(=O)C1=NNC(=O)CC1
    -1.3%	17	/	-12%	-0.1	20%
- O=C(CCNS(=O)(=O)c1cccc2nsnc12)NCc1ccco1
    /	16	-1.7	2%	-0.5	-5%[15.4 µM]
- Cc1cccc(NC(=O)c2cc(-c3cccnc3)nc3c(C)cccc23)n1
    33%	-2	/	-12%	-0.9	12%[15.4 µM]
- [O-][n+]1nc2ccccc2c2ccccc21
    2.5%	-6	/	-34%	-0.8	9%[15.4 µM]
- Cc1cccc(OCC(=O)Nc2ccc(C(=O)NCC(C)C)cc2)c1
    /	14	-1.3	-11%	0.8	5%[15.4 µM]
- CCOc1cc(S(=O)(=O)NCc2ccccc2)ccc1Br
    /	23	-1.6	-8%	5.0	-11%
- O=C(C1CCCN(S(=O)(=O)c2ccc(Br)cc2)C1)N1CCOCC1 (stereo unspecified)
    -1.9%	4	/	4%	0.0	14%[15.4 µM]
- CCCCC/C=C/C1=CC(=O)C[C@H](c2ccc(OC)c(OC)c2)C1
    -1.7%	10	/	-6%	-0.2	7%
- O=C(CN1CCN(S(=O)(=O)N2CCCCCC2)CC1)Nc1cc(Cl)ccc1Cl
    /	6	/	-3%	0.1	-18%[15.4 µM]
- COC(=O)c1scc(-c2ccc(C)cc2)c1S(=O)(=O)Nc1cc(C)c(Cl)cc1OC
    -2.5%	8	/	/	2.2	/
- COc1cc(C(=O)NNC(=O)CCOc2cccc(Br)c2)cc(OC)c1OC
    -1.0%	-8	/	1%	0.3	-11%
- O=C(CSc1nc2ccccc2[nH]1)Nc1c(F)c(F)c(F)c(F)c1F
    1.0%	-13	7.1	4%	1.1	-17%
- OCCN1CCOCCOCCN(CCO)CCN(CCO)CC1
    2.2%	28	-1.1	6%	0.4	-1%
- c1ccc(CN2CCN(c3nc4ccccc4s3)CC2)cc1
    /	-7	0.0	-10%	2.9	-1%[15.4 µM]
- ONC(=NCc1ccccc1)c1ccccc1
    -1.3%	3	/	4%	-0.5	-61%[inhibitor]
- CCOCCCn1cnc2c([nH]c3cc(OC)ccc32)c1=O
    -18%	9	2.4	7%	0.5	-2%
- CCCS(=O)(=O)N1CCN(Cc2ccccc2[N+](=O)[O-])CC1
    /	7	-0.4	9%	-0.2	-4%
- COc1ccc(-c2ccc(NS(=O)(=O)c3ccc(F)c(C(F)(F)F)c3)cc2)nn1
    1.5%	6	/	/	0.8	/
- O=C(N/N=C/c1ccccc1OC(=O)c1ccc2c(c1)OCO2)c1ccccc1
    0.6%	14	2.8	-9%	0.8	1%
- CC(c1ccccc1)n1cc(C(=O)NCCN2CCOCC2)nn1 (stereo unspecified)
    0.3%	0	2.8	6%	-0.2	-76%[inhibitor]
- CC1(C)Cc2c(c(N3CCOCC3)nc3sc4c(=O)[nH]cnc4c23)CS1
    -15%	27	0.0	32%[activator]	0.5	13%
- Cc1ccc(CN(C)S(=O)(=O)c2c(C)noc2/C=C/N(C)C)cc1
    0.3%	2	-3.2	-16%	-0.1	-13%
- O=C(N/C(=C/c1cccnc1)C(=O)N1CCCCCC1)c1cccc(Br)c1
    -1.9%	5	/	2%	-0.3	-26%
- Cc1ccccc1NC(=S)N1CCN(C(=O)c2ccco2)CC1
    /	-2	0.6	6%	-0.1	-4%
- C/C(CC(=O)Nc1ccc([N+](=O)[O-])cc1)=N\NC(=O)c1ccccc1[N+](=O)[O-]
    -18%	12	2.1	-9%	0.9	24%[15.4 µM]
- COC(=O)C1=C(Nc2ccc(C)cc2)C=C(C)C(C(=O)OC)C1c1cccc(OC)c1 (stereo unspecified)
    -3.4%	-8	-1.9	-21%	1.3	-3%
- O=C(O)CC/C(=N\NC(=O)c1ccccc1Br)c1ccccc1
    -0.5%	14	4.2	-9%	1.8	22%
- C/C=C/c1ccc(OCC(=O)N2CCc3cc(OC)c(OC)cc3C2)c(OC)c1
    /	4	2.7	?	-0.5	-39%[15.4 µM]
- CCC(CO)Oc1cc(NC(=O)c2cccc(F)c2)c2ncn(C(C)C)c2c1 (stereo unspecified)
    -0.1%	-3	/	-9%	-0.5	/
- COc1ccccc1N1CSC2=C(C#N)C(c3ccc(SC)cc3)CC(=O)N2C1 (stereo unspecified)
    13%	5	22	-9%	0.5	?
- Cc1cc(C=O)c(C)n1-c1ccc2c(c1)OCO2
    -2.5%	-25	0.2	15%	3.5	-15%
- C(=N\N=C\c1ccccn1)/c1ccccn1
    /	30	1.8	7%	-0.7	0%
- CCOC(=O)c1cnc(COc2ccc(OC)cc2)[nH]c1=O
    ?	-2	-1.3	-13%	-0.5	-3%[15.4 µM]
- Clc1cccc(CNCCCSc2ncccn2)c1
    /	14	-6.8	12%	0.3	-21%
- CC12CCC(C3NC(=S)NN=C31)C2(C)C (stereo unspecified)
    /	-1	/	12%	-0.4	-25%

Following part:
Every second line gives: ClpP mod	TRPML1 inh	Menin MLL FP FL	gsp antagonist	TRPML1 ag	gsp ag
- O=C(Nc1cccc(N=Cc2cc(Cl)cc(Br)c2O)c1)c1ccco1
    -1.9%	3	?	-25%	1.7	-2%
- CC(C)c1csc(CN2CCN(CCc3ccccc3)C(CCO)C2)n1 (stereo unspecified)
    0.2%	0	1.7	6%	-0.8	-16%
- O=C(Nc1cccc2ncccc12)c1cccc(F)c1
    1.2%	8	0.0	13%	-0.1	6%
- CCC(C)(C)NC(=O)C(OC(=O)c1ccco1)c1ccc(OC)cc1 (stereo unspecified)
    0.0%	8	-3.0	-1%	1.0	-3%
- O=C(O)CCn1c(C(=O)O)cc2sccc21
    0.2%	11	0.7	9%	0.9	6%
- c1ccc(-n2nnc(-c3cccnc3)n2)cc1
    -2.4%	29	-0.5	4%	0.0	-45%[inhibitor]
- C=CCNC(=S)N1CCN(c2ccccc2Cl)CC1
    1.0%	1	1.8	3%	0.0	?
- CN(C)CCN1CCN(C2CN(CCc3ccccc3)S(=O)(=O)C2)CC1 (stereo unspecified)
    -0.2%	0	/	/	0.7	/
- O=C(Cc1ccccc1)NCC(=O)N/N=C/c1ccc([N+](=O)[O-])s1
    /	0	-0.5	1%	-0.1	-2%
- Cc1ccc(-c2ccc(=O)n(CC(=O)NCCN3CCCCC3C)n2)cc1 (stereo unspecified)
    -19%	3	1.9	7%	-0.2	-3%
- O=C(CCCCCN1C(=O)[C@@H]2Cc3ccccc3CN2C1=O)N[C@@H](Cc1ccc(O)cc1)C(=O)O
    -9.9%	/	-4.1	-1%	/	/
- CSc1ccccc1NC(=S)N/N=C/c1cccn1Cc1ccc(F)cc1
    /	6	0.9	-44%	-1.0	-7%[15.4 µM]
- NS(=O)(=O)c1cccc(NC(=O)CSc2nnc(C3CC3)n2C2CC2)c1
    -0.1%	-3	/	12%	0.6	-25%
- COc1ccc(-c2ccc3c(c2)S(=O)(=O)c2cccc(C(=O)NC4CCCCC4)c2C3=O)cc1OC
    -2.4%	8	/	2%	-0.3	13%

Screening data: PubChem BioAssay, National Center for Advancing Translational Sciences (NCATS)
